HSV augment = HSV replication enhancement; 0.005% of 220,000 active; AID 1956; maximum fold increase; HSV replication augmentation in cells, fold increase;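 active = peak rise of 1.5-fold or more in the series; inconclusive = self-fluorescent or not available for retest; tested in PC3 cells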;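 also: first round at 10 µM; read as green reporter fluorescence; hits show the peak of a series up to 25 µM; 1 = signal of infected wells without compound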
INS promoter inh = TRM-6 insulin promoter activity inhibition; 0.9% of 130,000 active; inhibition, % at 2 µM; AID 1273; TRM-6 cells (human fetal islet line), insulin promoter-eGFP reporter, imaging; reporter expression induced with tamoxifen;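 active = inhibition above the mean plus 3 SD, with well images judged a real hit on visual review, cut at about 60% in these data, passing the limit was not always enough; inconclusive = inhibition over the cutoff but images rejected on review; inactive = inhibition not above the cutoff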
RGS16-Gao HTS = RGS16-Galphao interaction regulator (human). 0.38% of 220,000 active. binding response (% of control), % at 10 µM. O15492+P09471. bead-based flow cytometry RGS16-Galphao binding, fluorescence; actives lie on both sides;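 active = below 25% or above 175%, edge rows of some plates excepted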;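 also: Galphao activated by GDP with aluminum fluoride before binding; 100% = wells without compound and 0% = beads without RGS; some results beyond the cut were filed as inactive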
PKD1 inh = PKD1 (human) kinase inhibition. Q15139. PKD1 kinase fluorescence polarization assay. inhibition, %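 (about 10 µM by stock and volumes)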. 0.056% of 200,000 active;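 active = inhibition of 50% or more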;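 also: controls were vehicle for no effect and a reference inhibitor for full effect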
Target sequence (Q15139 whole entry, looked up): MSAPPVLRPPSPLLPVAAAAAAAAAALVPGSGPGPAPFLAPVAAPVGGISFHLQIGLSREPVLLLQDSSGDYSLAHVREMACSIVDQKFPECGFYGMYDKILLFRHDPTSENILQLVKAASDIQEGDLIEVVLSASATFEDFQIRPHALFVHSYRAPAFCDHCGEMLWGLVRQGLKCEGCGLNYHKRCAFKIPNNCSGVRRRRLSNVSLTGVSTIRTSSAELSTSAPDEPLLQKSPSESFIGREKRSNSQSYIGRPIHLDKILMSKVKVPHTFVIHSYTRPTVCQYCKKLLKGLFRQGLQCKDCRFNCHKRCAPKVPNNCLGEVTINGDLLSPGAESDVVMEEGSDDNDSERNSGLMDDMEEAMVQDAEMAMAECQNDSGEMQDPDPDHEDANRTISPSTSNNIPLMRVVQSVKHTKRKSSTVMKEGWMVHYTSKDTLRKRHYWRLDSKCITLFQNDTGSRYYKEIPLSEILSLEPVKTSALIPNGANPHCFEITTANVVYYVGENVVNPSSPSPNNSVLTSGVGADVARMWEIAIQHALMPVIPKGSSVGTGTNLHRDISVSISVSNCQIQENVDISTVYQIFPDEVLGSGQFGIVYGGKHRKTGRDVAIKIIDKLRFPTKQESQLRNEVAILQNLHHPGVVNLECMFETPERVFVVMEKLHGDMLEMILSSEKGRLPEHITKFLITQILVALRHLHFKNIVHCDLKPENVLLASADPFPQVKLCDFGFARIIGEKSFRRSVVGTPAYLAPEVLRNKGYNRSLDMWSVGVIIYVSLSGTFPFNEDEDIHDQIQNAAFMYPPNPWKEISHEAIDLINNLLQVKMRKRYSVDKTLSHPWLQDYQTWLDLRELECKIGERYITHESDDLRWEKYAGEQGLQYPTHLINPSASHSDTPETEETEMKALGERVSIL
GALR2 ag = agonists of human galanin receptor 2 (GALR2) | O43603 | GALR2-expressing cells, agonist activation read-out | activation, %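 (tested at 5 µM)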 | 0.48% of 140,000 active | AID 803;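 active = above mean plus 3 SD of all compounds, about 5% in these data, not always enough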;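 also: 0% = vehicle buffer wells and 100% = reference agonist at full effect; tested in CHO reporter cells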
INS promoter inh cell count = recorded beside INS promoter inh, whose call it bears; normalized cell count, %; measured here: cell count, toxicity; reference of the scale not given here;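 cells exposed to compound for 48 h; stained nuclei by imaging scaled within each plate; lower means fewer cells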
HSV augment primary fold = further read-out of HSV augment, marked with its call; fold increase; compound at 10 µM; measured here: primary screen fold increase 10 uM; tested in PC3 cells;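 GFP signal in the first replicate; 1 = infected wells without compound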
Active calls of the source: *; i = inactive; ? = inconclusive; . = not tested or not shown; & = joins results of further samples; [ ] = remark or other dose.

Below each compound: HSV augment	HSV augment primary fold	INS promoter inh	INS promoter inh cell count	RGS16-Gao HTS	PKD1 inh	GALR2 ag
> COCC(C)n1c(C)cc(C(=O)COC(=O)c2nc3nc(C)cc(C)n3n2)c1C (stereo unspecified)
→ i	0.98	53	130	90	98*	-3.0
> CCOc1ccc(S(=O)(=O)N2c3ccccc3CC2C)cc1 (stereo unspecified)
→ i	0.64	-257	5	101	-3	-0.5
> Cc1ccc(C(=O)COc2ccccc2-c2ccccc2)cc1C
→ i	1.1	.	.	98	6	-2.0
> C#CCNC(=O)C1=C[C@H](C2CC2)C[C@H](OCCCCO)O1
→ i	1.1	.	.	98	5	.
> CCc1nccn1S(=O)(=O)c1cc(OC)c(Cl)cc1OC
→ i	1	0	141	77	0	0.0
> Nc1nc(Cl)nc2c1ncn2[C@H]1C[C@H](O)[C@@H](CO)O1
→ i	0.56	10	45	39&102	-3	-0.6
> CC(=O)N(CCO)Cc1cc2cc(C)cc(C)c2[nH]c1=O
→ i	1.1	.	.	101	3	0.6
> COC(=O)NC(NC(=S)Nc1ccc([N+](=O)[O-])cc1)C(Cl)(Cl)Cl (stereo unspecified)
→ i	1	46	165	63	-3	-1.9
> CCCNc1sc(S(=O)(=O)CCC)nc1S(=O)(=O)c1ccc(C)cc1
→ i	0.98	-82	161	106	-5	.
> CCn1cc(C(=O)NCCCOC)c2cc(OC)c(OC)cc2c1=O
→ i	1	.	.	104	-13	-0.3

For convenience, some entries already given:
Below each compound: HSV augment	HSV augment primary fold	INS promoter inh	INS promoter inh cell count	RGS16-Gao HTS	PKD1 inh	GALR2 ag
> Cc1ccc(C(=O)COc2ccccc2-c2ccccc2)cc1C
→ i	1.1	.	.	98	6	-2.0
> C#CCNC(=O)C1=C[C@H](C2CC2)C[C@H](OCCCCO)O1
→ i	1.1	.	.	98	5	.

The results go on.
Below each compound: HSV augment	HSV augment primary fold	INS promoter inh	INS promoter inh cell count	RGS16-Gao HTS	PKD1 inh	GALR2 ag
> Cc1ccc(S(=O)(=O)N(CC(=O)NCCSc2ccccn2)c2cc(C)cc(C)c2)cc1
→ i	1.1	.	.	107	3	-1.0
> CC(Nc1ccc(F)cc1F)C(=O)NC(=O)NC1CCCCC1 (stereo unspecified)
→ i	0.86	22	99	109	3	.
> COCCNC(=O)C(OC(=O)CC1Sc2ccccc2NC1=O)c1ccncc1 (stereo unspecified)
→ i	1	-18	152	93	-6	-0.8
> CC(=O)c1cc2c(cc1NS(=O)(=O)c1ccc(F)cc1)OCO2
→ i	0.91	.	.	98	0	.
> O=C1CC(SCc2nc3ccccc3[nH]2)C(=O)N1c1ccc(Cl)cc1 (stereo unspecified)
→ i	1	26	258	100	-5	-3.5
> COc1ccc(C2=NOC(C(=O)Nc3cc(C)nn3-c3ccccc3)C2)cc1OC (stereo unspecified)
→ i	0.78	.	.	99	0	0.8
> Cc1ccc(CN2CCN(C(=O)C3CCC3)CC2)cc1
→ i	1	38	84	100	-12	-0.7
> O=C(O)CCNc1ccc2c(c1)OCCO2
→ i	1	32	81	96	-10	-3.0
> Cc1sc2ncn(CC(=O)OC(C)C)c(=O)c2c1C
→ i	0.97	46	108	103	-12	-1.3
> S=c1[nH]nc(-c2ccccc2)n1/N=C/c1ccc(-c2ccccc2Cl)o1
→ i	0.67	8	79	104	-7	0.6
> CCCN1CCCc2ccccc21
→ i	0.99	-26	118	102	5	-0.9
> CCCc1cc(=O)oc2cc(OCC(=O)OC)cc(OCC(=O)OC)c12
→ i	0.98	7	128	100	-4	-0.1
> CN(C)/C=C1\C(=O)ON=C1c1ccccc1
→ .	.	-46	95	110	-5	.
> CCc1ccc(NC(=O)C2CCCN(S(=O)(=O)c3c(C)[nH]c(=O)[nH]c3=O)C2)cc1 (stereo unspecified)
→ i	1	.	.	97	-7	.
> N#Cc1ccc(CSc2nnc(Cc3cccs3)n2Cc2ccco2)cc1
→ i	1	-121	132	171	3	-1.0
> COc1ccc2oc(/C=C/N(C)C)c(C(=O)c3ccc(Cl)cc3)c2c1
→ i	1	3	76	80	7	0.6
> COc1cc(OC)cc(C(=O)NC(=S)Nc2ccc3c4c(cccc24)CC3)c1
→ i	1.2	-41	118	108	-10	-2.5
> C/C=C/c1ccc(OCCCCN2C(=O)NC(C)(C)C2=O)c(OC)c1
→ i	1.1	-7	133	104	0	-1.3
> Cc1ccc(NC(=O)CSc2nn(-c3ccccc3)c(=S)s2)cc1S(=O)(=O)N(C)C
→ i	0.77	-5	116	100	6	-1.7
> COc1ccc2occ(C(C)=O)c2c1
→ i	0.92	7	120	105	-13	-0.9
> CCOC(=O)c1sc(C)c2c(=O)n(Cc3ccc(Cl)cc3)c(C)nc12
→ i	0.91	-5	76	123	-8	0.4
> CC(C)C(NC(=O)c1ccccc1F)C(=O)Nc1nccs1 (stereo unspecified)
→ i	0.9	0	100	102	-5	.
> COc1ccccc1-c1nnc2sc(-c3ccc(N(C)C)cc3)nn12
→ i	0.75	-53	15	103	-4	3.0
> COCCCNC(=O)/C(=C\c1cccn1C)NC(=O)c1cccs1
→ i	1	-33	66	58	16	-1.1
> S=C(NCc1ccccc1)N1CCN(C2CCCCC2)CC1
→ i	0.87	.	.	98	.	.
> O=C(Nc1cc(Cl)ccc1Cl)C1CC(=O)N(c2ccccc2)C1 (stereo unspecified)
→ i	1.1	32	38	99	8	.
> C[C@@H](CN1C2=NC[C@H](Cc3ccccc3)N2C[C@H]1Cc1ccc(O)cc1)NC(=O)CCC1CCCCC1
→ i	0.9	.	.	101	6	.
> Cc1ccc(N/C=C2\CCCCC2=O)nc1
→ i	0.97	20	132	99	2	.
> Nc1c(C(=O)O)nnn1Cc1ccccc1
→ i	0.95	-6	150	101	0	0.2
> O=C(c1ccc(Cl)c(F)c1F)N1CCOCC1
→ i	0.95	-4	127	103	11	0.4
> N#CC1(C#N)CC(C=O)=C(N)C1(C#N)CC(=O)c1ccc(F)cc1 (stereo unspecified)
→ ?	.	0	108	91	-7	0.7
> Cc1ccc(OCC(=O)Nc2ccc(F)cc2)cc1
→ i	1	-43	111	89	-2	-4.0
> C/C(=N\NC(=S)NCCc1ccccc1)c1cccc(Br)c1
→ i	1	-16	79	103	-4	.
> O=C(CO/N=C/c1ccccc1O)N1CCc2ccccc21
→ i	0.93	28	74	191*[activator]	-7	4.1
> c1ccc(C2=NC(c3ccccc3)N=C(c3ccccc3)N2)cc1
→ i	1	-319	34	106	10	-1.1
> CCOC(=O)c1c(/N=C/N(C)C)sc2c1CCC2
→ i	0.98	10	74	109	4	-1.2
> CCOc1ccccc1Nc1nc(N)nc(CSc2nncn2C)n1
→ i	1.1	41	59	93	-5	-1.3
> CCOC(=O)c1nccnc1C(=O)Nc1ccc(C(F)(F)F)cc1
→ i	1	.	.	100	-4	.
> COc1ccc(/C(N)=N/OC(=O)Oc2ccccc2)cc1
→ i	1.1	-79	129	117	-4	-0.9
> COc1ccccc1-c1cn[nH]c1-c1ccc(OCc2ccc(F)cc2)cc1O
→ i	0.86	.	.	104	.	.

Results in GALR2 ag and INS promoter inh, for 5 of the compounds above:
smiles	GALR2 ag	INS promoter inh
N#Cc1ccc(CSc2nnc(Cc3cccs3)n2Cc2ccco2)cc1	-1.0	-121
COc1ccc2oc(/C=C/N(C)C)c(C(=O)c3ccc(Cl)cc3)c2c1	0.6	3
COc1cc(OC)cc(C(=O)NC(=S)Nc2ccc3c4c(cccc24)CC3)c1	-2.5	-41
C/C=C/c1ccc(OCCCCN2C(=O)NC(C)(C)C2=O)c(OC)c1	-1.3	-7
Cc1ccc(NC(=O)CSc2nn(-c3ccccc3)c(=S)s2)cc1S(=O)(=O)N(C)C	-1.7	-5

(next part)
Below each compound: HSV augment	HSV augment primary fold	INS promoter inh	INS promoter inh cell count	RGS16-Gao HTS	PKD1 inh	GALR2 ag
> Cc1onc(-c2ccncc2)c1C(=O)O
→ i	0.97	.	.	97	5	0.0
> CN1C2CCC1CC(NC(=O)CSc1ccc(Cl)cc1)C2 (stereo unspecified)
→ i	0.96	.	.	99	.	.
> COc1cc(/C=N/NC(=O)Nc2cccc3nsnc23)cc(OC)c1OC
→ .	.	30	72	115	-4	-2.0
> CC1CC(C)CN(S(=O)(=O)c2ccc(C(=O)Nc3nnc(-c4cccs4)o3)cc2)C1 (stereo unspecified)
→ .	.	.	.	102	-2	-0.5
> O=C(/C=C/c1ccccc1Cl)NC1CCS(=O)(=O)C1 (stereo unspecified)
→ i	0.93	.	.	96	-2	.
> CCOC(=O)C(NC(C)=O)C(O)c1ccc([N+](=O)[O-])cc1 (stereo unspecified)
→ i	0.97	11	97	108	-1	.
> c1ccc(OCCCCn2cnc3ccccc32)cc1
→ i	0.84	-371	72	102	0	-0.3
> CC(Oc1ccc(Br)cc1)C(=O)N1CCC(C(N)=O)CC1 (stereo unspecified)
→ i	1.1	-24	109	99	-7	.
> CCn1c(CC(=O)Nc2ccc(C)c(Cl)c2)nnc1SCC(=O)Nc1nc(C)cs1
→ i	0.95	-450	78	103	-10	-2.4
> N#CNC(=Nc1ccc(Cl)cc1)Oc1ccccc1
→ i	1	.	.	103	.	.
> CC1CCCCC1NC(=O)C1CCN(S(=O)(=O)N2CCCCCC2)CC1 (stereo unspecified)
→ i	0.98	.	.	90	3	-0.7
> CN1CCN(C(=O)C2CCN(S(=O)(=O)c3ccc4c(c3)oc(=O)n4C)CC2)CC1
→ i	0.95	.	.	104	4	-2.0
> c1ccc(CCCNc2ncnc3nc[nH]c23)cc1
→ i	0.95	50	150	95	-1	-1.5
> CN1C(=O)/C(=C/c2ccc(O)c([N+](=O)[O-])c2)NC1=S
→ i	0.91	.	.	103	-2	.
> Cc1cccc(OCc2nnc(SCC(=O)NCCc3ccccc3)o2)c1
→ i	0.9	9	110	102	23	-0.9
> O=C(Oc1ccc(N2C(=O)CCC2=O)cc1)c1ccccc1Cl
→ i	1	-67	71	110	-2	-1.5
> Cc1ccc(S(=O)(=O)N2CCCCC2)cc1NC(=O)CNCc1ccco1
→ i	0.97	.	.	100	.	.
> CCc1ccc(/C=C\C(=O)N2CCc3ccccc3C2)cc1
→ .	.	30	60	73	0	-3.0
> CNC(=O)c1ccc(-c2ccc(OC)cc2)s1
→ i	0.78	-8	259	85	-3	2.8
> O=C(Nc1ncc(Br)s1)C1CCCN1S(=O)(=O)c1cccc2cccnc12 (stereo unspecified)
→ i	1	14	82	100	7	2.8
> O=C(CCn1c(=O)[nH]c2ccsc2c1=O)N1CCN(c2cccc(Cl)c2)CC1
→ i	1.1	.	.	109	-6	-1.5
> CCn1c(SCC(=O)N2CCc3ccccc3C2)nc2sc(C)c(C)c2c1=O
→ i	2.1	.	.	100	-3	-1.1
> O=C(CN1CCc2ccccc2C1)NCc1ccco1
→ i	0.97	41	112	98	2	-0.8
> CCC(=O)Nc1ccc(C(=O)N/N=C/c2cc(Br)c(OC)cc2OC)cc1
→ i	0.91	6	124	105	-7	-1.0
> COc1ccc(C(=O)OCC(=O)c2c(N)n(C)c(=O)n(C)c2=O)cc1OC
→ i	0.94	.	.	105	-2	.
> O=C(COC(=O)c1ccccn1)NCCCc1ccccc1
→ i	0.91	0	81	101	-2	-3.7
> CC(=O)c1c(C)[nH]c(C(=O)NCc2cccc(Cl)c2)c1C
→ i	1	-7	57	61	2	.
> COc1cccc(-c2csc(N3CCN(C(=O)C4CCCCC4)CC3)n2)c1
→ .	.	.	.	106	-7	0.4
> COc1ccc(CCNC(=O)CSC(=O)c2ccccc2)cc1OC
→ i	0.94	0	103	96	6	.
> O=C1c2ccccc2CCCC12N=NCC2c1cccc2ccccc12 (stereo unspecified)
→ .	.	.	.	99	2	-2.1
> Cc1ccccc1C(=O)NC1CCN(Cc2ccccc2)CC1
→ i	0.99	.	.	104	-2	.
> COc1ccc(-c2[nH]ncc2CN2CCN(C(=O)c3ccco3)CC2)cc1F
→ i	0.95	.	.	88	-5	.
> COc1ccc(C)cc1S(=O)(=O)N1CCN(S(=O)(=O)c2cc(C)ccc2OC)CC1
→ i	0.84	-13	45	100	-5	-0.5
> CCOCCCNC(=O)C(c1ccc(C)cc1)N1CCOCC1 (stereo unspecified)
→ i	1	.	.	103	-6	.
> COC(=O)c1ccc(CSc2nnc(NC(C)C)s2)o1
→ i	1.1	-25	67	110	-4	.
> O=C(c1cccc(S(=O)(=O)N2CCOCC2)c1)N(Cc1ccc(F)cc1)Cc1ccco1
→ i	1	-47	98	98	-2	.
> CCOP(=O)(CC(C(C)=O)C(O)c1ccccc1)OCC (stereo unspecified)
→ i	0.97	32	51	75	7	-0.6
> COc1cccc(NC(=O)Nc2ccccc2C(N)=O)c1
→ i	0.93	19	143	103	-3	.
> N#Cc1cc([N+](=O)[O-])ccc1NC(=O)COC(=O)CCC1CCCCC1
→ i	1.1	.	.	99	0	.
> NC(=O)COC(=O)c1cc(-c2ccco2)nc2ccccc12
→ i	1	.	.	101	.	.

Screening results (PubChem BioAssay)
